BJeLR viability: BJeLR cell viability loss. BJeLR (HRASV12) viability, CellTiter-Glo ATP luminescence, 48 h; reference of the scale not given here. inhibition, % (no concentration beside the values). actives 0.17% (n = 300,000);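 active = replicate mean above 50%; inconclusive = above 50% but judged a plate artefact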;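 also: 50 nL library stock added to about 25 µL; numbers are from one replicate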
RN4220 kill: kills Staphylococcus aureus RN4220; S. aureus RN4220 growth, OD600, 16 h; inhibition, % (concentration not given with the values); actives 0.33% (n = 330,000); AID 1259311;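 active = z-score of -3 or lower and OD600 up to 0.18 on both plates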;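 also: plate controls were untreated cells for no effect and reference antibiotic for full effect; stock transfer was 100 nL into about 80 µL; one replicate is shown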
PrP UTR inh: inhibition of PrP 5' UTR reporter expression. cell-based PrP 5' UTR mRNA reporter, plate reader. inhibition, % (test concentration not listed). actives 0.35% (n = 340,000);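 active = every replicate at 50% or more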;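 also: 0 = median of the neutral control wells; tested in H4 reporter cells; numbers are from one replicate; inactives centre near -14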
Autofluor counter: compound fluorescence in toxin protease inhibitor counterscreen. compound autofluorescence counterscreen, microsphere flow cytometry; active compounds read high. fluorescence intensity (test concentration not listed). actives 3.1% (n = 360,000). AID 624483;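 active = at least 3 SD above the mean of all compounds, about 16000 in these data; inconclusive = too few beads counted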;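 also: 100 nL of 1 mM stock went into each well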
ugtP null kill: compounds lethal to S. aureus RN4220 ugtP deletion mutant; OD600 growth, 16 h; some inactives read as strong as hits; AID 1259309; growth inhibition, % (test concentration not listed); actives 0.54% (n = 330,000);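 active = z-score under -3 and OD600 up to 0.15 on both plates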;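 also: plate controls were untreated wells for no effect and antibiotic for full effect; wells of about 80 µL received 100 nL stock; the first replicate is given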
Mtb hypoxia inh: reduces hypoxia-regulated biosensor signal in M. tuberculosis; M. tuberculosis hypoxia-regulated fluorescent reporter, fluorescence; fluorescence inhibition, % (test concentration not listed); actives 0.1% (n = 300,000); AID 1159583;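 active = 35 to 45% if threefold the growth effect, above 45% if 1.5-fold the growth effect; inactive = the rest, general growth blockers included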;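 also: wells of about 50 µL received 100 nL stock; 0% = vehicle wells and 100% = reference inhibitor wells; whole bacteria with a GFP reporter of the hypoxia response; strong numbers were not always called active; many hits fall short of the cut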
Mtb hypoxia inh growth: recorded beside Mtb hypoxia inh, whose call it bears; growth inhibition, %; measured here: M. tuberculosis growth (absorbance);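 0% = vehicle and 100% = reference antibiotic; read after six days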
Starred values were filed as active, the others as inactive; ? = inconclusive; nt = not tested or not shown.

Order of values: BJeLR viability, RN4220 kill, PrP UTR inh, Autofluor counter, ugtP null kill, Mtb hypoxia inh, Mtb hypoxia inh growth
(1) COC(=O)Cn1c(=O)c2c(nc3n2CC(C)CN3CCc2ccccc2)n(C)c1=O (stereo unspecified)
  3, -0.8, -12, 3593, 4, -17, 6
(2) O=[N+]([O-])c1cccc(C(=S)N2CCN(c3ccc(F)cc3)CC2)c1
  1, 4.6, -11, 1905, -12, 9, 7
(3) CC(=O)Nc1ccc(S(=O)(=O)Nc2nc3ccccc3nc2Cl)cc1
  -1, 1.5, -34, 3707, 7, 4, 4
(4) COc1cc(C=O)ccc1OC(=O)c1cccnc1
  -2, 1.1, -7, 3075, 1, 0, 7
(5) Cc1cc(C)c(C)c(SCC(=O)Nc2oc(C)c3c(C)n[nH]c(=O)c23)c1C
  3, 3.2, 4, ?, 12, -1, -6
(6) O=C(NC1CCCc2c1cnn2-c1cc(F)cc(F)c1)c1ccc[n+]([O-])c1 (stereo unspecified)
  10, 1.4, 8, 5747, 2, 11, 10
(7) O=C(NN=Cc1ccco1)c1ccc(C(=O)NN=Cc2ccco2)o1
  nt, 1.6, nt, nt, -10, 12, -1
(8) CSc1ccccc1NC(=S)Nc1cc(C)cc(C)c1
  -6, -3.0, -14, 3894, 13, nt, nt
(9) Cc1c(Cl)cccc1NC(=S)NCCN1CCOCC1
  -3, 0.8, -15, 2131, -1, 15, 6
(10) Cc1ccc(C(C)n2cc(C(=O)NCc3ccncc3)nn2)cc1 (stereo unspecified)
  -8, 0.6, -14, 3825, 4, nt, nt
(11) O=C(c1ccc([N+](=O)[O-])o1)N1CCN(Cc2ccccc2)CC1
  -7, -1.0, -1, 4102, 1, nt, nt
(12) CCOCCN(C(=O)c1ccccc1Cl)c1ccccc1
  -9, 4.8, -9, 6247, 0, -4, -2
(13) CCOCC(=O)Nc1c(C(=O)OCC)oc2ccccc12
  -8, 1.6, -33, 9577, -2, 6, 2
(14) CC12CC3CC(C)(C1)CC(C(=O)NNC(=O)c1ccncc1)(C3)C2
  2, 4.7, -27, 6158, 3, 0, 9
(15) COc1ccc(CCN2C(=O)N(c3ccc(OC)cc3)C(=O)C2CC(=O)Nc2ccc(OC)cc2)cc1 (stereo unspecified)
  21, 0.7, -27, 4668, 5, 9, 2

Single records (already shown).
`CC12CC3CC(C)(C1)CC(C(=O)NNC(=O)c1ccncc1)(C3)C2` is listed as BJeLR viability = 2; RN4220 kill = 4.7; PrP UTR inh = -27; Autofluor counter = 6158; ugtP null kill = 3; Mtb hypoxia inh = 0; Mtb hypoxia inh growth = 9
`COc1ccc(CCN2C(=O)N(c3ccc(OC)cc3)C(=O)C2CC(=O)Nc2ccc(OC)cc2)cc1` (stereo unspecified) is listed as BJeLR viability = 21; RN4220 kill = 0.7; PrP UTR inh = -27; Autofluor counter = 4668; ugtP null kill = 5; Mtb hypoxia inh = 9; Mtb hypoxia inh growth = 2
`CC(=O)Nc1ccc(S(=O)(=O)Nc2nc3ccccc3nc2Cl)cc1` is listed as BJeLR viability = -1; RN4220 kill = 1.5; PrP UTR inh = -34; Autofluor counter = 3707; ugtP null kill = 7; Mtb hypoxia inh = 4; Mtb hypoxia inh growth = 4

The results go on:
Order of values: BJeLR viability, RN4220 kill, PrP UTR inh, Autofluor counter, ugtP null kill, Mtb hypoxia inh, Mtb hypoxia inh growth
(16) CN(C)c1nc(N)nc(CSc2nnnn2-c2ccccc2)n1
  -5, 1.7, -6, 10585, 2, 4, 7
(17) CCn1c(-c2csc(C(C)C)c2)n[nH]c1=S
  3, 5.1, -27, 2569, 4, 14, 6
(18) CC1CCN(Cc2ccc(NC(=O)CC3Oc4ccccc4NC3=O)cc2)CC1 (stereo unspecified)
  -2, 0.7, -33, 5276, -10, nt, nt
(19) Cc1cc(C)n(-c2ccc3nncn3n2)n1
  7, 6.8, -72, 2282, 14, -5, -7
(20) CCCCC(CC)CNC(=O)CCS(=O)(=O)c1cccc2nsnc12 (stereo unspecified)
  -3, 6.1, -5, 4639, 0, 5, 6
(21) CN(C(=O)c1ccc(C#N)cc1)c1nnc(-c2ccccn2)s1
  -4, 13, -28, 3435, 1, 0, 13
(22) O=C(CNc1ccc(Cl)cc1)c1ccc(Br)cc1
  25, 6.9, 9, 3987, 10, 4, 11
(23) C=CCSc1nc2ccccc2n2cnnc12
  -8, 3.1, -7, 4092, 3, 6, 2
(24) COc1ccc(C(=O)C2CCN(S(=O)(=O)c3ccc4c(c3)OCCO4)CC2)cc1
  -3, -0.9, -19, 11295, 20, 5, 8
(25) Nc1ccn(-c2ccccc2)c(=O)c1
  -5, -14, -4, 3296, -2, 6, 7
(26) Cc1c(-c2ccc(Cl)cc2)[n+](=O)c(-c2ccccc2)cn1[O-]
  5, 5.1, nt, 5835, 4, 9, 15
(27) COc1ccc(C=NNC(=O)c2ccccc2Cl)cc1CSc1nc2ccccc2s1
  nt, -4.3, nt, nt, -2, 2, -3
(28) CC(Oc1ccccc1)C(=O)OCC(=O)NC(=O)NCc1ccco1 (stereo unspecified)
  1, -16, -13, 2969, -4, 8, 7
(29) Fc1cnc(N2CCOCC2)nc1N1CCOCC1
  -6, 2.4, -25, 4394, 1, -5, -13
(30) O=C(CCS(=O)(=O)Cc1ccccc1)Nc1nnc(C(F)(F)F)s1
  0, 2.8, -2, 5679, 10, 2, 4
(31) Cc1csc(N2CCN(c3cc4c(cc3Cl)nc(-c3ccncc3)n4CCCN3CCCC3)CC2)n1
  -3, -12, -10, 6108, -8, 9, 9
(32) Cc1cc(C)c2nc(N3CCCC(C(=O)N4CCC(C(N)=O)CC4)C3)sc2c1 (stereo unspecified)
  -15, 8.1, -24, 10608, 11, -2, 10
(33) Cc1ccc(C(=O)N2CCNC(=O)C2CC(=O)Nc2ccc(F)cc2)cc1C (stereo unspecified)
  4, nt, -15, 5038, nt, nt, nt
(34) Cc1ccc(C2CC2c2n[nH]c(=S)n2-c2cccc(C)c2)cc1 (stereo unspecified)
  -2, 4.0, -14, 3524, 32, 5, -7
(35) CCOC(=O)C1CCCN(C2CCN(Cc3nc(Cc4ccccc4)no3)CC2)C1 (stereo unspecified)
  0, 4.8, -8, 4285, 5, 12, 2
(36) CCCCCC/C(=N/O)c1ccccn1
  3, nt, -27, 3927, nt, nt, nt
(37) COCCCn1c(SCC(=O)NC2CCCCC2)nc2ccccc2c1=O
  8, 1.6, -23, 3962, 8, 13, 5
(38) CC1=NNC(=O)c2ccccc2O1
  -3, 16, -30, 4120, -63, 11, 3
(39) COc1cc(-c2csc(NC3CCCCC3)n2)cc(OC)c1OC
  2, 4.7, -3, 5282, -7, 11, 7
(40) COc1cc(F)c(C2=CC(=O)CC(c3ccc(F)cc3)C2)cc1F (stereo unspecified)
  nt, 1.9, nt, nt, 1, 22, 10
(41) COC(=O)c1ccc(CSc2n[nH]c(=S)s2)o1
  -3, 1.3, -16, 4337, 2, nt, nt
(42) CCNS(=O)(=O)c1ccc(CCC(=O)NCCc2ccc(OC)cc2)cc1
  4, 1.8, 0, 4472, 1, 4, 3
(43) Cc1ccnc(-n2c(C)cc(C=C3C(=O)N(C)C(=S)N(C)C3=O)c2C)c1
  -3, 2.2, 9, 3236, -2, nt, nt
(44) CCCCCC(=O)Nc1ccc(Cc2ccncc2)cc1
  -2, -2.9, -5, 2943, 1, 5, 12
(45) COc1cccc(-c2cc(C(=O)N3CCN(Cc4ccccc4)CC3)no2)c1
  3, 0.8, -20, 14845, 0, 4, 5
(46) CC1(C(=O)NCc2cccnc2)CCC(=O)N1CCc1ccccc1 (stereo unspecified)
  7, 0.9, 11, 5501, 1, 2, 9
(47) COc1ccc(/C=C/C(=O)NC(=S)NNC(=O)c2cccnc2)cc1OC
  1, 12, -2, 3301, 4, -4, 1
(48) Cc1ccc(OCc2ccc(C(=O)N3CCOCC3)cc2)cc1C
  -1, 8.5, -71, 11167, -2, 7, 3
(49) CCc1nc(SCC(=O)Nc2ccccc2)c2c(=O)n(C)c(=O)n(C)c2n1
  -9, -0.9, -3, 5405, 7, 5, -3
(50) COc1cc(NC(=O)CCN2CC(C)OC(C)C2)cc(OC)c1 (stereo unspecified)
  -5, 3.6, 3, 3885, 8, 9, 2
(51) Oc1ccc(/C=N/n2cnn(Cc3ccccc3Cl)c2=S)c(O)c1
  3, nt, -14, 2084, nt, nt, nt
(52) CCOc1cc(N2CCOCC2)c(OCC)cc1NC(=O)[C@H](C)NC(=O)c1ccco1
  4, 0.8, -9, 4281, 8, 4, -14
(53) CN(Cc1ccccc1)C(=O)c1ccc(COc2ccccc2)cc1
  1, 18, -63, 3304, 21, 13, 8
(54) CCCn1c(-c2ccc[nH]c2=O)nc2cc(C)c(C)cc21
  3, 1.9, -60, 4767, 0, 7, 0
(55) CSc1ncccc1C(=O)OCC(=O)N(C)C1CCS(=O)(=O)C1 (stereo unspecified)
  -2, 8.0, -25, 3089, -3, 6, 6
(56) COc1ccc(N2CCN(C(=O)C3CCN(S(=O)(=O)c4ccc(C)cc4)CC3)CC2)cc1
  -2, 4.2, -10, 4311, -3, 9, 12
(57) CCc1cc(C(Cc2ccccn2)=NNc2ccccc2)c(O)cc1O
  nt, -4.0, nt, nt, 21, 8, 1
(58) Nc1ncnc2c1C(c1ccccc1)c1c(ccc3ccccc13)O2 (stereo unspecified)
  nt, 1.4, -21, 3101, 25, 23, 10
(59) CCN(CC(=O)Nc1ccc(OC)cc1)C(=O)c1cc2c(s1)CCCCC2
  -3, 1.4, -24, 4577, 12, 15, 3
(60) CCC(C)(C)NC(=O)C(c1ccc(C)o1)N(Cc1ccc2c(c1)OCO2)C(=O)c1snc(C(N)=O)c1N (stereo unspecified)
  -4, 1.5, -18, 5309, 12, -7, 6
(61) O=C(/C=C/c1ccccc1[N+](=O)[O-])NCc1cccnc1
  7, 4.9, -18, 2470, -2, 0, 2
(62) CN1OC(COC(=O)c2ccc(Cl)cc2Cl)CC1c1ccccc1 (stereo unspecified)
  -4, -2.2, -10, 6016, 21, 14, 8
(63) N#C/C(=C\c1c(Oc2ccccc2Cl)nc2ccccn2c1=O)C(=O)NC1CCS(=O)(=O)C1 (stereo unspecified)
  6, 0.6, -16, 3887, 1, 2, -3
(64) Cc1cc(C(=O)NN=C2CC(=O)CC(C)(C)C2)c2ccccc2n1
  nt, 2.4, nt, nt, 1, 7, -1
(65) CCOC(=O)C(C)Sc1nc2c(cnn2-c2ccc(F)cc2)c(=O)[nH]1 (stereo unspecified)
  12, 2.3, 5, 3571, 1, -8, 4
(66) COc1ccc(C)cc1NC(=O)CCN1CCN(c2ccccc2F)CC1
  -1, 4.5, -21, 3289, 6, 13, 13
(67) Cc1c(CC(=O)NCCC(=O)O)c(=O)oc2cc3occ(-c4ccccc4)c3cc12
  -8, -0.4, -12, 3897, 5, -2, -3
(68) Cc1cc(C(=O)NN=Cc2cn[nH]c2-c2ccccc2)cs1
  nt, -0.7, nt, nt, 8, -3, -2

3 compounds picked at random from those above, as already listed:
Order of values: BJeLR viability, RN4220 kill, PrP UTR inh, Autofluor counter, ugtP null kill, Mtb hypoxia inh, Mtb hypoxia inh growth
(25) Nc1ccn(-c2ccccc2)c(=O)c1
  -5, -14, -4, 3296, -2, 6, 7
(2) O=[N+]([O-])c1cccc(C(=S)N2CCN(c3ccc(F)cc3)CC2)c1
  1, 4.6, -11, 1905, -12, 9, 7
(27) COc1ccc(C=NNC(=O)c2ccccc2Cl)cc1CSc1nc2ccccc2s1
  nt, -4.3, nt, nt, -2, 2, -3
